# UCH37 inh = inhibitors of human UCH37 deubiquitinase, primary screen, biochemical, Ub-AMC cleavage, fluorescence. purified proteasome/UCH37. inhibition, % (no concentration beside the values). AID 588478, 2011. 330,000 tested, 0.33% active. Ubiquitin carboxyl-terminal hydrolase isozyme L5 (Homo sapiens), Q9Y5K5;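 active = mean of two replicates above 20%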;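 also: 0% = compound-free wells with enzyme and 100% = wells lacking proteasome; stock transfer was 100 nL into about 20 µL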
# Target sequence (Q9Y5K5 whole entry, looked up): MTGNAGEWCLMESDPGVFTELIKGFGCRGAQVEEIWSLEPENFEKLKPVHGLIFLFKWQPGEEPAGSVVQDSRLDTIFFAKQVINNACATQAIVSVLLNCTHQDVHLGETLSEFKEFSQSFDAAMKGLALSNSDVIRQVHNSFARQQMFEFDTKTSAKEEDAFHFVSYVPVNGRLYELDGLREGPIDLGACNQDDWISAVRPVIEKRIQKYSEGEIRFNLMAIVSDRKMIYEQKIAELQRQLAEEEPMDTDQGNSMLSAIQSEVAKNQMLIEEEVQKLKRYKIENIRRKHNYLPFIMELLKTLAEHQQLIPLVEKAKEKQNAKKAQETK
#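 Assay system: Proteasome-bound UCH37. Buffer or medium: pH 7.4 Tris-HCl (50 mM) with ovalbumin, ATP-MgCl2, DTT. Incubation: 30 min preincubation with enzyme, 25 min cleavage at room temperature. Measured by: fluorescence, ex 355 nm, em 460 nm. Read-out basis: percent inhibition. Control set: wells without proteasome as full block, compound-free enzyme plus substrate as uninhibited.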
# FGF22 binding = binders of human FGF22 protein, primary screen, FGF22 synaptogenesis inhibitor project, biophysical, thermal shift, single point; Fibroblast growth factor 22 (Homo sapiens), Q9HCT0; recombinant FGF22 thermal shift, SYPRO orange fluorescence; percent of sucrose octasulfate shift, DMSO zero; calls only at 9.99 µM; 340,000 tested, 1.5% active;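 active = melting point raised past a set limit in the mean and every replicate; inconclusive = no clear call; three in four hits are not shown here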
# Target sequence (Q9HCT0 whole entry, looked up): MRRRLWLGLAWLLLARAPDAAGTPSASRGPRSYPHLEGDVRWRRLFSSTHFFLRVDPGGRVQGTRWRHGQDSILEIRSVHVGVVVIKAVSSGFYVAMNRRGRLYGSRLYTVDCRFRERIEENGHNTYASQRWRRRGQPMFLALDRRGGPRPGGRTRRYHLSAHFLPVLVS
# HNF4A DNA FP = change in binding of human HNF4A to DNA, primary screen, biochemical, fluorescence polarization, FITC-DNA; Hepatocyte nuclear factor 4-alpha (Homo sapiens), P41235; 1 h; activity change, % at 10 µM; 360,000 tested, 0.3% active; AID 1224865, 2016; in the data active = activity change above about 30%, passing the limit was not always enough;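 also: controls were the assay level and a saturating level of protein; the project sought stronger binding though the title names inhibitors; some compounds called inactive have numbers as strong as hits; positive values seem to mean higher polarization but the record does not say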
# Target sequence (P41235 whole entry, looked up): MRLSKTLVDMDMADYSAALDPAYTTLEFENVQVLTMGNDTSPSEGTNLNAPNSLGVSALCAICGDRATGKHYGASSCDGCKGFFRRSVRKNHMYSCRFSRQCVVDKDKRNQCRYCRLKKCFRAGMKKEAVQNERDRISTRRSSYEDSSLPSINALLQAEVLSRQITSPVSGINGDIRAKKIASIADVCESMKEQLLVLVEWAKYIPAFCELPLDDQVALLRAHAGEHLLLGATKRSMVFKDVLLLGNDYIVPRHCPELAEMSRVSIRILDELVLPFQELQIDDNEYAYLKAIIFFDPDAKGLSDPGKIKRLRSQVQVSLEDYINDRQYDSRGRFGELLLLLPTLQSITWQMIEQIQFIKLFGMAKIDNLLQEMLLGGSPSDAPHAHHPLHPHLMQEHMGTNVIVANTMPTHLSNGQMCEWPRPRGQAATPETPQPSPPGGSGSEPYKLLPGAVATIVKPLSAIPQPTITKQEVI
# RanGTP-Impb inh = inhibitors of RanGTP-importin-beta interaction, primary screen, biochemical, FRET, CFP-Ran, YFP-importin-beta, homogeneous; Ran GTPase (GTP-bound) - importin-beta complex; cell-free CFP-Ran/YFP-importin-beta FRET ratio; inhibition, % (concentration not given with the values); 300,000 tested, 1.1% active; AID 2216, 2009;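 active = most replicates above 15%; inconclusive = exactly half above 15%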;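 also: 0% = DMSO wells and 100% = Ran loaded with GDP instead of GTP; wells of about 40 µL received 100 nL stock; the first replicate is given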
# Ecoli growth = E. coli growth inhibition, primary screen, OD600. Escherichia coli growth, 23 h; active compounds read low. OD600 absorbance (test concentration not listed). 330,000 tested, 0.21% active;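 active = OD600 absorbance below the run mean of sample wells minus 3.6 SD, in any replicate, cut at about 0.56 in these data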;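 also: stock transfer was 300 nL into about 60 µL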
# Vif TR-FRET = inhibitors of Vif binding to APOBEC3G peptide, primary screen, biochemical, TR-FRET, GST-Vif 1-94, biotin-A3G peptide, dose response retest (AID 1117319); 260,000 tested, 0.57% active; TR-FRET GST-Vif / biotin-A3G peptide binding; higher % means a stronger effect; test concentration not given here; strong numbers were not always called active; Virion infectivity factor (Human immunodeficiency virus type 1 group M subtype B (isolate …; inhibition, %; hits with a dose series show IC50 in µM;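 active = above the screen mean plus three standard deviations and confirmed in dose response; inconclusive = results disagree or hit not tested in dose response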;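 also: Vif residues 1-94 fused to GST binding biotinylated APOBEC3G peptide 110-148; 0% = full assay without inhibitor and 100% = GST in place of GST-Vif; retest series ran down from 100 µM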
# MLL AF4-AF9 inh = inhibitors of AF4 peptide binding to AF9, primary screen, biochemical, AlphaScreen, biotin-AF4 peptide, FLAG-AF9, single point; Protein AF-9 (Homo sapiens), P42568; inhibition, % at 10 µM; 350,000 tested, 0.47% active; AID 651704, 2012;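 active = every replicate reaching a set inhibition limit, whatever the replicate mean, cut at about 25% in these data; inconclusive = mean inhibition reaches that limit but some replicates miss it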;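 also: 0% = plate neutral control median and 100% = total signal loss; the record names both 10 and 1 µM as test concentration; the first replicate is given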
# An asterisk follows results filed as active; i = inactive; ? = inconclusive; / = not tested or not shown; + = active, no number.
SMILES,UCH37 inh,FGF22 binding,HNF4A DNA FP,RanGTP-Impb inh,Ecoli growth,Vif TR-FRET,MLL AF4-AF9 inh
NC(=O)CSC1=Nc2ccccc2C2=NC(CC(=O)NCc3cccs3)C(=O)N12 (stereo not given),-2.9,/,-0.6,-2.4,0.66,0.7%,/
O=C(c1cc(-c2ccc(Cl)cc2)n[nH]1)N1CCc2ccccc2C1,/,i,3.4,2.9,/,/,0.4
O=C1CC(N2CCN(S(=O)(=O)c3ccccc3F)CC2)C(=O)N1c1ccccc1Cl (stereo not given),5.3,i,1.9,/,0.714,/,3.2
CC1(C(=O)NCc2cccc(Cl)c2)Cc2c(-c3cccc(C(N)=O)c3)ccnc2O1 (stereo not given),/,i,-0.3,/,/,/,3.3
CC(Nc1cc(N2CCN(C(=O)C(C)(C)C)CC2)ccc1[N+](=O)[O-])c1ccccc1 (stereo not given),5.3,/,0.1,-3.5,0.738,5.6%,/
Cc1cc(C)c(-c2csc(NC(=O)C3=COCCO3)n2)c(C)c1,4.4,i,1.1,-1.6,0.652,-7.8%,6.0
C=CCNC(=S)Nc1ccc2nc(C)oc2c1,5.0,i,-0.5,-0.7,0.698,/,-0.2
Cc1noc(C)c1C(=O)NCCc1ccc(Cl)cc1,2.1,i,0.9,3.5,0.758,0.5%,0.9
Cc1ccc(C2=[N+]([O-])C(C)N(O)C2(C)C)o1 (stereo not given),7.9,/,-4.2,1.2,0.759,-1.9%,/
O=C(COC(=O)C1COc2ccccc2O1)c1ccccc1 (stereo not given),/,i,-2.7,/,/,16.3%,-0.4
CCN1CCN(C(=O)c2ccccc2N(C)S(=O)(=O)c2ccc(C)cc2)CC1,1.1,/,-3.2,-2.6,0.682,-8.2%,/
CCOc1ccc(NC(=O)CC2SC(N)=NC2=O)c([N+](=O)[O-])c1 (stereo not given),2.8,i,-2.8,-1.8,0.697,13.9%,0.8
O=C(c1ccc2c(=O)n3c(nc2c1)CCCCC3)N1CCN(c2cccc(Cl)c2)CC1,0.4,i,3.5,-1.7,0.713,/,-4.8
COc1ccc(C(C(=O)NCCC(C)C)N(CCO)C(=O)c2snc(C(N)=O)c2N)cc1 (stereo not given),-39.0,/,-3.9,-6.3,0.663,/,1.2
COc1ccc(C(=O)NNC2=NC(C)(C)Cc3ccccc32)cc1,3.3,/,-2.1,-2.6,0.652,/,/
Cc1ccccc1NC(=O)c1cccnc1,2.8,i,-4.2,3.9,0.676,/,-3.4
COc1cccc(CNC(=O)Cc2ccc(NC3=NC4CS(=O)(=O)CC4S3)cc2)c1 (stereo not given),2.1,i,7.1,2.0,0.803,/,-3.9
Cc1ccc(-c2noc(=O)n2CC(=O)c2ccc(Cl)cc2)cc1,/,/,2.3,-1.1,/,-0.7%,-11.7
Cc1nccc(-c2cccc(NC(=O)Nc3ccc(Cl)cc3)c2)n1,3.6,+,4.2,1.0,0.641,17.0%,/
CCn1c(=O)n(CC(=O)NCC2CCCO2)c(=O)c2c3c(sc21)CCCC3 (stereo not given),5.5,i,-23.1,-2.5,0.714,3.4%,-9.7
Cc1ccccc1C(=O)N1CCC(C(=O)OCc2ccccc2Cl)CC1,6.1,i,-2.2,/,0.717,-9.0%,3.3
Cc1nnc(SCCC(=O)Nc2ccc(Cl)cc2)o1,0.1,i,3.4,-0.4,0.602,/,-1.9
COC(=O)C1=C(CCc2ccccc2)NC(=O)NC1c1ccc(C#N)cc1 (stereo not given),2.1,i,-3.0,-7.5,0.685,/,2.9
Cc1ccc(CNC(=O)c2ccc(N3CCC4(CC3)CC(c3cccc(Br)c3)=NO4)c([N+](=O)[O-])c2)cc1,0.7,i,-1.6,-8.6,0.753,/,?
Cc1ccc(O)c(NC(=O)c2ccccc2-c2ccccc2C(=O)O)c1,3.2,i,-1.7,0.6,0.663,/,-4.7
O=c1c2cnn(-c3ccccc3)c2ncn1Cc1ccccc1,2.2,/,-2.9,?,0.674,18.1%,/
Cc1ccc2nc(SCC(=O)c3ccc(Cl)s3)[nH]c2c1,1.7,i,3.9,-5.0,0.623,-2.4%,-37.4
Cc1ccc(Cl)cc1NC(=O)N[C@@H](CC(C)C)C(=O)O,3.9,i,-2.1,1.4,0.762,-4.0%,4.1
CCOc1ccccc1NC(=O)N1CCCC1C(=O)NCc1ccco1 (stereo not given),1.1,i,-0.2,4.2,0.613,/,0.6
O=C1CCN(C2CCN(Cc3nc(Cc4ccccc4F)no3)CC2)CCN1,-1.4,/,-0.4,?,0.709,17.9%,/
COC(=O)C[C@@H]1C[C@@H]2c3cc(NS(=O)(=O)c4ccccc4)ccc3O[C@@H]2[C@@H](CO)O1,/,i,-1.6,/,/,-1.8%,-1.3
O=C(COC(=O)CNC(=O)c1ccc(Cl)cc1Cl)Nc1ccc(N2CCOCC2)cc1,2.3,i,-5.0,0.5,0.729,-6.1%,2.3
Cc1ccc(NC(=S)NC(=O)CC2CC(C)(C)OC2=O)cc1 (stereo not given),-0.3,i,-2.0,1.6,0.681,-8.3%,1.2
Cc1ccc(-c2cc(C(=O)N3CCCC3)c3ccccc3n2)s1,i,i,0.8,-1.1,0.706,/,3.8
COc1ccccc1-c1nc(-c2ccc(Br)cc2)no1,3.6,/,0.0,5.9,0.701,-10.7%,/
Cc1ccc(/C=N/NC(=O)C2COc3ccccc3O2)s1 (stereo not given),/,i,-1.9,-2.4,/,-2.5%,2.0
COc1ccc2nc(N/C(N)=N/C(=S)Nc3c(C)cccc3C)nc(C)c2c1,-18.1,i,-1.1,1.6,0.672,/,-1.6
Cc1cc(C)n(-c2ccc(C(=O)OCc3nnc(-c4ccccc4)o3)cc2)n1,-1.1,/,0.3,-4.1,0.745,1.7%,/
O=C(COC(=O)/C=C/c1ccco1)Nc1ncc(C(F)(F)F)cc1Cl,1.4,i,-8.7,0.3,0.68,12.7µM*,-1.8
O=C(c1cccc([N+](=O)[O-])c1)N1CCOCC1,1.6,/,2.2,0.5,0.682,-6.5%,/
CN1C(C(=O)NCc2cccc(C(F)(F)F)c2)CC2Cn3c(nc4ccccc43)C21 (stereo not given),-1.5,i,4.3,-2.7,0.697,?,0.0
COc1ccc(OC)c(NC(=O)CN2C(=O)CSc3ccc(S(=O)(=O)N4CCCC4)cc32)c1,/,i,-1.9,-2.7,/,/,-1.7
NC(=O)C1CCN(c2ccc(S(=O)(=O)N3CCCCC3)cc2[N+](=O)[O-])CC1,6.4,i,1.9,/,0.684,-13.0%,-6.8
COc1ccc(OC)c(S(=O)(=O)n2c([N+](=O)[O-])cnc2C)c1,2.4,i,-4.4,-3.0,0.65,/,0.8
COc1cccc(CNS(=O)(=O)c2cc3c(cc2C)n(C)c(=O)c(=O)n3C)c1,2.5,i,-1.6,5.1,0.729,-23.1%,0.2
CCCNC(=O)c1cc(C2CCCCN2C(=O)c2cccs2)on1 (stereo not given),/,i,0.4,/,/,/,-6.7
O=C1C=C(c2cnc3ccccc3c2)C[C@@H](c2ccc3c(c2)OCO3)C1,5.6,i,-5.3,/,0.763,/,0.7
C/C(NC(=O)c1ccccc1F)=C1\C(=O)C[C@@H]2[C@H]1C2(C)C,4.0,/,1.5,3.0,0.736,6.7%,/
Cc1ccc(CS(=O)(=O)c2ncc(Cl)c(C(=O)Nc3nnc(C)s3)n2)cc1,/,i,1.9,-1.4,/,/,-4.0
O=C(COc1ccc(F)cc1)NC1CC1,3.2,/,0.2,-4.1,0.731,-5.2%,/
# Other results follow.
SMILES,UCH37 inh,FGF22 binding,HNF4A DNA FP,RanGTP-Impb inh,Ecoli growth,Vif TR-FRET,MLL AF4-AF9 inh
CCCCN(C(=O)c1nn(C)c(=O)c2ccccc12)c1c(N)n(CCC)c(=O)[nH]c1=O,3.9,i,0.0,/,0.653,-0.4%,1.6
CCCCN1C(=O)C(CC(=O)NCCCN(C)C)CC(C(=O)N(C(C)C)C(C)C)=C1C (stereo not given),/,i,2.3,/,/,/,-1.0
COc1ccc(S(=O)(=O)N2CCN(C(=O)CCc3c[nH]c4ccccc34)CC2)cc1,0.9,i,1.4,/,0.727,/,?
CC(C)Cc1cc(C(=O)NCc2cccs2)no1,4.1,i,0.3,-10.9,0.755,-6.3%,-6.1
CC1CCCCN1CCNC(=O)CCc1nnc2n(Cc3ccccc3)c(=O)c3ccccc3n12 (stereo not given),5.6,i,5.7,8.9,0.737,-6.7%,2.6
O=C(c1cccc(Cl)c1)N(Cc1ccco1)C1CCS(=O)(=O)C1 (stereo not given),4.6,i,1.7,-2.2,0.694,/,6.5
Cc1nc(SC(C)C(=O)NCc2ccc3c(c2)OCO3)nc(C)c1C (stereo not given),0.2,i,158.2,/,0.638,-4.5%,7.3
CNC(=O)NC(=O)C(C)OC(=O)c1c2c(nc3ccccc13)/C(=C/c1cccs1)CC2 (stereo not given),-82.5,i,24.0,-48.8,0.692,/,-6.2
CCN=C1S/C(=C\c2ccc(OCC)c(OC)c2)C(=O)N1CC,5.0,/,4.5,1.0,0.688,/,/
COc1cc(CN2CCCC(C(=O)c3ccc(C(C)(C)C)cc3)C2)cc(OC)c1O (stereo not given),3.9,i,1.5,?,0.677,/,13.9

# Five compounds picked at random from the list so far, as already listed:
SMILES,UCH37 inh,FGF22 binding,HNF4A DNA FP,RanGTP-Impb inh,Ecoli growth,Vif TR-FRET,MLL AF4-AF9 inh
CCN=C1S/C(=C\c2ccc(OCC)c(OC)c2)C(=O)N1CC,5.0,/,4.5,1.0,0.688,/,/
CNC(=O)NC(=O)C(C)OC(=O)c1c2c(nc3ccccc13)/C(=C/c1cccs1)CC2 (stereo not given),-82.5,i,24.0,-48.8,0.692,/,-6.2
CCCCN(C(=O)c1nn(C)c(=O)c2ccccc12)c1c(N)n(CCC)c(=O)[nH]c1=O,3.9,i,0.0,/,0.653,-0.4%,1.6
CC(C)Cc1cc(C(=O)NCc2cccs2)no1,4.1,i,0.3,-10.9,0.755,-6.3%,-6.1
Cc1nc(SC(C)C(=O)NCc2ccc3c(c2)OCO3)nc(C)c1C (stereo not given),0.2,i,158.2,/,0.638,-4.5%,7.3

# (listing goes on)
SMILES,UCH37 inh,FGF22 binding,HNF4A DNA FP,RanGTP-Impb inh,Ecoli growth,Vif TR-FRET,MLL AF4-AF9 inh
Cc1ccccc1-c1nc(CS(=O)(=O)CC(=O)NCCN2CCCC2)c(C)o1,-1.0,i,1.8,5.1,0.697,/,7.4
Oc1c(C(c2cccs2)N2CCOCC2)sc2ncnn12 (stereo not given),1.9,i,-0.1,0.9,0.668,-10.0%,-1.3
CC12CCC(C(=O)Nc3ccc(Cl)cc3)([C@H](Br)C1=O)C2(C)C (stereo not given in full),3.2,i,-0.3,-0.6,0.67,-3.2%,-3.1
Cc1cc(C)c2c(c1)c(C)cc1nnc(SCC(=O)NCc3ccco3)n12,-2.2,/,2.5,1.6,0.665,9.0%,/
COc1cc(C(=O)Nn2c(C)nc3ccccc3c2=O)cc(OC)c1OC,5.1,i,0.5,0.2,0.656,1.3%,-0.3
CCOC(=O)c1c(NC(=O)c2ccccc2Br)sc2c1CCc1ccccc1-2,-47.5,/,-2.4,7.5,0.712,-3.4%,/
CC(=O)N1N=C(C)CC1c1ccc(O)cc1 (stereo not given),4.9,i,5.6,-1.0,0.717,3.5%,0.0
Cc1cc(-c2nnc(CCC(=O)N3CCN(Cc4cccc(F)c4)CC3)o2)c(C)o1,-0.5,i,3.8,-1.7,0.659,-7.2%,-11.5

# Screens deposited in PubChem BioAssay by several laboratories.

# A portion of the library; count on the stated rates, not on these rows.
